Bioassay records from PubChem BioAssay.
Ecoli rRNA inh: inhibitors of bacterial rRNA selective over humanized ribosomes. GFP signal change (wild-type ribosome), % (test concentration not listed). E. coli WT GFP vs humanized-ribosome RFP mutants, fluorescence, 24 h; active compounds read low; DMSO median 0, no signal -100. 350,000 compounds, 1.6% hits;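 active = significant combined selectivity score with lowered wild-type GFP, culture density cut under 30%, mutant RFP and density less affected; inactive = any of these conditions unmet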; note: one replicate is shown; some compounds called inactive have numbers as strong as hits
Beta2AR agonist: human beta-2 adrenergic receptor agonism by FAP; 340,000 compounds, 0.43% hits; Am2.2-beta2AR cells, FAP receptor internalization, flow cytometry; reference of the scale not given here; response, % (concentration not given with the values); P07550;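 active = response above a set limit, near 3 SD of response in nonfluorescent compounds, cut at about 42% in these data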;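 note: stock transfer was 100 nL into about 11 µL; a reference agonist was the positive control; negative values mostly stem from fluorescent compounds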
Target sequence (P07550 whole entry, looked up): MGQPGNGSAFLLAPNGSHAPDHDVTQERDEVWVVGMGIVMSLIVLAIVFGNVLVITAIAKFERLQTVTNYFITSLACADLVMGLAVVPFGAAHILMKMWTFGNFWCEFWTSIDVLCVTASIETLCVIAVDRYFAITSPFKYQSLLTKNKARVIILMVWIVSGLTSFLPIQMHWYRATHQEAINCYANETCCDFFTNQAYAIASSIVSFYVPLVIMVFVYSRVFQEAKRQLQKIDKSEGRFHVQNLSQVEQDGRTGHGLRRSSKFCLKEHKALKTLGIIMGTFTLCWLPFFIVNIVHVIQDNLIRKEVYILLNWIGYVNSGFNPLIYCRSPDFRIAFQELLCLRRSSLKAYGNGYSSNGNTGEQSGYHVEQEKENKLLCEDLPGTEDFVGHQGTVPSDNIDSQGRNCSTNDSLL
HNF4A DNA FP: change in binding of human HNF4 alpha to DNA; HNF4a-FITC DNA binding, fluorescence polarization, 1 h; P41235; activity change, % at 10 µM; 360,000 compounds, 0.3% hits; AID 1224865; in the data active = activity change above about 30%, passing the limit was not always enough;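 note: controls were the assay level and a saturating level of protein; the project sought stronger binding though the title names inhibitors; some compounds called inactive have numbers as strong as hits; positive values seem to mean higher polarization but the record does not say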
ALR H2O2 inh: blocks human ALR sulfhydryl oxidase activity | P55789 | purified ALR, DTT oxidation, H2O2 HRP-luminol luminescence | inhibition, % (no concentration beside the values) | 290,000 compounds, 3.8% hits;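 active = mean and each replicate at 75% or more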;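 note: stock transfer was 7.5 nL into about 7.5 µL; 0% = neutral wells and 100% = wells with inactivated enzyme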
Target sequence (P55789 whole entry, looked up): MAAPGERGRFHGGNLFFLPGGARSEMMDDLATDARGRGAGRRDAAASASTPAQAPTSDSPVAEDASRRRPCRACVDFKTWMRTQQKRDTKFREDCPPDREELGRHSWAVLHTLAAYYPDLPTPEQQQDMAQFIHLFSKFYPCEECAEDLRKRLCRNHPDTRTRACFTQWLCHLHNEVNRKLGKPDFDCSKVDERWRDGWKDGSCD
Ecoli growth: E. coli growth inhibition; AID 1053175; OD600 absorbance (test concentration not listed); 330,000 compounds, 0.21% hits; Escherichia coli growth, OD600, 23 h; active compounds read low;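 active = OD600 absorbance below the run mean of sample wells minus 3.6 SD, in any replicate, cut at about 0.56 in these data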;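 note: stock transfer was 300 nL into about 60 µL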
UCH37 DUB inh: inhibitors of human deubiquitinating enzyme UCH37; purified proteasome/UCH37, Ub-AMC cleavage fluorescence; AID 588478; 330,000 compounds, 0.33% hits; inhibition, % (test concentration not listed); Q9Y5K5;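 active = mean of two replicates above 20%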;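 note: 0% = compound-free wells with enzyme and 100% = wells lacking proteasome; stock transfer was 100 nL into about 20 µL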
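Test system – human UCH37 enzyme supplied as purified proteasome complex · Incubation – 30 min preincubation with enzyme, 25 min cleavage at room temperature · Detection – AMC fluorescence from Ub-AMC cleavage, excitation 355 nm, emission 460 nm · Benchmarks – no-proteasome wells (full inhibition) and compound-free wells (no inhibition)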
FGF22 binding: shifts melting point of recombinant human FGF22. Q9HCT0. recombinant FGF22 thermal shift, SYPRO orange fluorescence; percent of sucrose octasulfate shift, DMSO zero. calls only at 9.99 µM. 340,000 compounds, 1.5% hits;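 active = melting point raised past a set limit in the mean and every replicate; three in four hits are not shown here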
Target sequence (Q9HCT0 whole entry, looked up): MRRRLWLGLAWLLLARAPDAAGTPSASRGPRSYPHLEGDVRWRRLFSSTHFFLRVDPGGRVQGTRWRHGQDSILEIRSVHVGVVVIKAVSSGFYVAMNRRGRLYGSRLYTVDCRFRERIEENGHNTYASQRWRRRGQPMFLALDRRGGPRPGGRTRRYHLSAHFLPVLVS
Ecoli rRNA inh OD600: recorded beside Ecoli rRNA inh, whose call it bears; OD600 change, %; measured here: OD600 growth;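 optical density of the mix in the first replicate; 0 = DMSO median and -100 = no signal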
Ecoli rRNA inh RFP: also measured in Ecoli rRNA inh; calls as there; RFP signal change, %; measured here: RFP humanized mutant strains;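 first replicate; 0 = DMSO median and -100 = no signal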
Starred values were filed as active, the others as inactive; i = inactive; . = not tested or not shown; + = active, no number.

1	COc1ccccc1-n1c(SCC(=O)OC(C)C)nc2cccnc21
2	Cc1nc(NC(=S)NC(=O)COc2ccc(Cl)cc2)ccc1Br
3	CC(=O)c1c(C)[nH]c(C(=O)Nc2cccc(S(=O)(=O)N3CCCCC3)c2)c1C
4	O=S(=O)(c1cccc2cccnc12)N1CCN(Cc2ccccc2)CC1
5	c1ccn(-c2ccc(N3CCOCC3)cc2)c1
6	O=C(NCCSCc1ccco1)Nc1cccc(Cl)c1

assay / entry	1	2	3	4	5	6
Ecoli rRNA inh	7	3	2	-3	.	.
Ecoli rRNA inh OD600	7	2	-14	-4	.	.
Ecoli rRNA inh RFP	-7.2	9.5	-6.4	2.3	.	.
Beta2AR agonist	-5	-4	10	2	4	-1
HNF4A DNA FP	-0.2	0.3	0.2	-3.1	0.8	1.8
ALR H2O2 inh	3	0	0	0	22	-42
Ecoli growth	0.72	0.68	0.69	0.65	0.74	0.66
UCH37 DUB inh	-2.2	3.7	-0.3	2.0	-1.6	1.0
FGF22 binding	i	i	i	+	.	.

Sorted by the number under Beta2AR agonist (highest first): three from the list above
nr | structure | Beta2AR agonist
5 | c1ccn(-c2ccc(N3CCOCC3)cc2)c1 | 4
4 | O=S(=O)(c1cccc2cccnc12)N1CCN(Cc2ccccc2)CC1 | 2
6 | O=C(NCCSCc1ccco1)Nc1cccc(Cl)c1 | -1

As a working copy, 2 of the compounds above:
1	COc1ccccc1-n1c(SCC(=O)OC(C)C)nc2cccnc21
2	Cc1nc(NC(=S)NC(=O)COc2ccc(Cl)cc2)ccc1Br

assay / entry	1	2
Ecoli rRNA inh	7	3
Ecoli rRNA inh OD600	7	2
Ecoli rRNA inh RFP	-7.2	9.5
Beta2AR agonist	-5	-4
HNF4A DNA FP	-0.2	0.3
ALR H2O2 inh	3	0
Ecoli growth	0.72	0.68
UCH37 DUB inh	-2.2	3.7
FGF22 binding	i	i

Other results:
7	CC1CCN(CCCNC(=O)c2cc3c(Cl)nc4ccccc4c3s2)CC1
8	C=CCn1c(=O)c(C(=O)Nc2ccc(C)cn2)c(O)c2ccccc21
9	O=C(CSc1ccccn1)Nc1ccc(Cl)cn1
10	COc1ccc(C(=O)NC2CCCCC2)cc1S(=O)(=O)N1CCCC1
11	O=C(COc1ccc2ccc(=O)oc2c1)N1CC[C@@]2(O)CCCC[C@H]2C1
12	CC(=O)Nc1ccc(S(=O)(=O)N2CCc3cc4c(cc3C2C)OCCCO4)cc1 (stereo not drawn)

assay / entry	7	8	9	10	11	12
Ecoli rRNA inh	-16	20	-1	.	.	-2
Ecoli rRNA inh OD600	-17	20	-7	.	.	-19
Ecoli rRNA inh RFP	1.5	-0.1	-1.7	.	.	6.0
Beta2AR agonist	-1	-3	-8	26	-4	3
HNF4A DNA FP	-0.4	-0.4	0.8	-0.7	2.7	-0.5
ALR H2O2 inh	-6	-10	-4	-15	.	-1
Ecoli growth	0.65	0.7	0.66	0.7	0.67	0.65
UCH37 DUB inh	3.4	-50	-0.1	-0.1	-35	-2.0
FGF22 binding	i	i	i	.	i	i

13	O=C(CCC(=O)c1ccc(Oc2ccccc2)cc1)Nc1ccc(Cl)cc1Cl
14	CN(C)c1ccc(C(=O)OCC(=O)c2ccc[nH]2)cc1
15	Cc1ccc(S(=O)(=O)Nc2cc(C(F)(F)F)ccc2N2CCOCC2)c(C)c1
16	CCN1C(=O)[C@H]2[C@H]3CN=C(SC)N3[C@@](C)(C(=O)OC)[C@H]2C1=O
17	COC(=O)Cc1c(C)c2ccc(OC(=O)c3ccccc3)cc2oc1=O
18	CCOC(=O)CSc1nc(-c2ccncc2)ccc1C#N

assay / entry	13	14	15	16	17	18
Ecoli rRNA inh	.	-5	-1	13	.	.
Ecoli rRNA inh OD600	.	2	-11	13	.	.
Ecoli rRNA inh RFP	.	1.5	-1.5	-4.6	.	.
Beta2AR agonist	-18	-3	-9	1	8	-9
HNF4A DNA FP	3.3	0.9	-1.1	1.1	-3.4	0.6
ALR H2O2 inh	-2	25	-4	.	98*	-3
Ecoli growth	0.7	0.65	0.67	0.69	0.7	0.73
UCH37 DUB inh	-0.1	4.9	-0.1	-1.0	i	-25
FGF22 binding	.	i	i	i	.	.

19	Cn1c(NC(=O)c2ccccc2F)cc(=O)n(C)c1=O
20	O=c1c2ccccc2c2ccccc2c(=O)n1Cc1ccc2c(c1)OCO2
21	O=C(Cc1ccccc1Cl)Nc1cccc(S(=O)(=O)N2CCOCC2)c1
22	CCc1nc(NC(C)C)c2oc3ccccc3c2n1
23	Cc1ccc(CNC(=O)C2CC(=O)N(C3CCCCCC3)C2)cc1 (stereo not drawn)
24	COc1ccc(C2(CNC(=O)c3ccco3)CCOCC2)cc1

assay / entry	19	20	21	22	23	24
Ecoli rRNA inh	2	-9	7	.	1	.
Ecoli rRNA inh OD600	1	-1	2	.	-3	.
Ecoli rRNA inh RFP	-4.8	2.1	17	.	-1.2	.
Beta2AR agonist	-1	.	-5	-2	-2	-10
HNF4A DNA FP	-1.4	-1.8	-2.2	-2.0	21	2.8
ALR H2O2 inh	.	.	-3	1	-11	.
Ecoli growth	0.71	.	0.67	0.72	0.68	0.7
UCH37 DUB inh	4.6	.	1.7	4.3	-17	2.4
FGF22 binding	i	i	i	.	i	.

Look-ups from the entries so far.
Ecoli rRNA inh RFP result of O=C(Cc1ccccc1Cl)Nc1cccc(S(=O)(=O)N2CCOCC2)c1 : 17
UCH37 DUB inh result of COc1ccc(C2(CNC(=O)c3ccco3)CCOCC2)cc1 : 2.4
Ecoli rRNA inh OD600 result of Cc1ccc(CNC(=O)C2CC(=O)N(C3CCCCCC3)C2)cc1 (stereo not drawn) : -3
Ecoli rRNA inh OD600 result of Cn1c(NC(=O)c2ccccc2F)cc(=O)n(C)c1=O : 1

(further entries)
25	CC(C)N(c1ccccc1)c1ncnc(NCCC(=O)O)c1[N+](=O)[O-]
26	O=C(NC1CCCC1)c1ccc(S(=O)(=O)N2CCCC2)cc1
27	CC(C)c1nc(SCC(=O)Nc2ccc3c(c2)OCO3)n[nH]1
28	CC1=C(C(=O)OCC2CCCO2)C(c2cccc(C(F)(F)F)c2)C2=C(CC(c3ccco3)CC2=O)N1 (stereo not drawn)
29	COc1cc(C2C(C#N)=C(N)OC3=C2C(=O)CCC3)cc(OC)c1OC(=O)N1CCOCC1 (stereo not drawn)
30	CNS(=O)(=O)c1cc(NC(C)=O)c(C)cc1C

assay / entry	25	26	27	28	29	30
Ecoli rRNA inh	.	.	.	.	.	.
Ecoli rRNA inh OD600	.	.	.	.	.	.
Ecoli rRNA inh RFP	.	.	.	.	.	.
Beta2AR agonist	12	-4	8	-5	-2	0
HNF4A DNA FP	0.9	-0.2	-1.1	-7.2	1.2	-4.8
ALR H2O2 inh	-20	-3	-13	-9	.	.
Ecoli growth	0.73	0.72	0.7	0.75	0.77	0.71
UCH37 DUB inh	7.6	-1.6	3.9	-166	4.8	5.1
FGF22 binding	.	.	.	.	.	i

31	O=C(Nc1ccc(F)cc1)NC1CCCc2ccccc21 (stereo not drawn)
32	COc1ccc(/C=N/Nc2nc(-c3cccc(S(=O)(=O)N4CCCC4)c3)cs2)c(OC)c1
33	O=C(Nc1ccc(CN2CCCCC2)cc1)c1cccc(F)c1
34	CCCNC(=O)C1(C)CCN(C(=O)c2cccc(C(F)(F)F)c2)C1 (stereo not drawn)
35	CC(C)CCNC(=O)c1ccc(CSCc2cccc(F)c2)o1
36	CC(C)N(CC#CC(O)(c1ccccc1)c1ccccc1)CCO

assay / entry	31	32	33	34	35	36
Ecoli rRNA inh	4	2	26	10	.	.
Ecoli rRNA inh OD600	10	6	22	13	.	.
Ecoli rRNA inh RFP	-1.3	-1.1	-0.9	-1.5	.	.
Beta2AR agonist	-12	-4	2	.	-3	4
HNF4A DNA FP	-1.7	3.2	-0.5	3.1	-1.3	-2.4
ALR H2O2 inh	-9	-2	3	.	12	-7
Ecoli growth	0.72	.	0.7	.	0.66	0.69
UCH37 DUB inh	4.0	.	-0.3	.	1.5	5.8
FGF22 binding	i	i	.	i	.	.

37	CCCCn1c(N)c(N(CCOC)C(=O)COC(=O)c2ccccc2NCCO)c(=O)[nH]c1=O
38	O=C(Nc1ccccc1N1CCOCC1)c1ccccc1NS(=O)(=O)c1ccc(F)c(F)c1
39	CN(c1ccc(O)cc1)c1nc(-c2cccs2)cs1
40	c1ccc(CNc2nc(-c3ccccc3)nc3ccccc23)cc1
41	Cc1nccnc1Sc1ccccc1
42	COC(=O)c1oc2ccc(Cl)cc2c1-n1cccc1

assay / entry	37	38	39	40	41	42
Ecoli rRNA inh	6	.	8	-55	8	.
Ecoli rRNA inh OD600	12	.	4	-78	10	.
Ecoli rRNA inh RFP	-0.1	.	6.9	-17	2.5	.
Beta2AR agonist	6	14	1	-8	-12	-2
HNF4A DNA FP	-1.2	-2.2	-3.9	-2.0	-0.9	-2.1
ALR H2O2 inh	.	0	98*	2	15	.
Ecoli growth	0.68	0.7	0.64	0.69	.	0.72
UCH37 DUB inh	-462	2.4	7.3	1.8	.	0.2
FGF22 binding	i	.	.	i	i	.

3 entries from above, ordered by formula weight, smallest number first:
41	Cc1nccnc1Sc1ccccc1
42	COC(=O)c1oc2ccc(Cl)cc2c1-n1cccc1
40	c1ccc(CNc2nc(-c3ccccc3)nc3ccccc23)cc1

assay / entry	41	42	40
Ecoli rRNA inh	8	.	-55
Ecoli rRNA inh OD600	10	.	-78
Ecoli rRNA inh RFP	2.5	.	-17
Beta2AR agonist	-12	-2	-8
HNF4A DNA FP	-0.9	-2.1	-2.0
ALR H2O2 inh	15	.	2
Ecoli growth	.	0.72	0.69
UCH37 DUB inh	.	0.2	1.8
FGF22 binding	i	.	i

Other records follow:
43	O=C(COc1ccc(Br)cc1)Nc1ccc(CN2CCOCC2)cc1
44	CCC(C)(C)n1nnnc1C(c1cccnc1)N1CCCC(C)C1 (stereo not drawn)
45	C=CCN1C(=O)c2ccc(C(=O)N3CCN(S(=O)(=O)c4ccc(C(C)C)cc4)CC3)cc2C1=O
46	CCOc1ccc(C(=O)NC(=S)Nc2ccc(NC(=O)C(C)C)cc2)cc1[N+](=O)[O-]
47	Cc1cccc(C)c1NC(=O)c1cc(S(=O)(=O)N2CCOCC2)cn1C
48	CCOC(=O)N1CCN(S(=O)(=O)c2ccc3c(c2)CCN3C(=O)CC)CC1
49	O=C(COC(=O)c1cccnc1Cl)NC(=O)c1ccc(OC(F)F)cc1
50	COc1cccc(NC(=O)C2CCCN2C(=O)NC2CCCCC2)c1 (stereo not drawn)
51	Nc1c(C(=O)c2ccc(Br)cc2)oc2ccccc12

assay / entry	43	44	45	46	47	48	49	50	51
Ecoli rRNA inh	0	.	-9	.	14	.	7	2	-11
Ecoli rRNA inh OD600	-1	.	1	.	10	.	17	10	-1
Ecoli rRNA inh RFP	3.0	.	-5.3	.	-0.4	.	-2.7	-1.2	4.9
Beta2AR agonist	0	-1	6	-20	5	-4	-4	3	0
HNF4A DNA FP	5.8	0.9	1.1	-1.4	-2.3	28	-0.8	-3.0	-1.9
ALR H2O2 inh	-12	-2	0	-4	-10	-10	-2	.	-4
Ecoli growth	0.68	0.69	0.64	0.68	0.69	0.74	0.68	0.72	0.74
UCH37 DUB inh	-0.6	2.9	0.9	1.5	5.9	1.9	-1.9	3.1	-0.3
FGF22 binding	i	i	i	.	i	.	i	i	i

Not all compounds are listed (hit frequency here may not be typical).
